Screening data deposited in PubChem by Fisher Drug Discovery Resource Center.
NPYLR7 agonist = mosquito NPYLR7 agonism; HEK293T NPYLR7/Galpha15, GCaMP6s calcium fluorescence; activation, % at 10 µM; hit rate 0.15% among 270,000; in the data active = activation above about 40%;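 note: 0% = vehicle and 100% = reference agonist at the receptor; some compounds past the cut are filed as inactive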
NPYLR7 agonist max-min = recorded beside NPYLR7 agonist, whose call it bears; activation, %; measured here: Max-Min RFU normalised activation; some inactives read as strong as hits;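 span of the calcium signal over five minutes; 0% = vehicle and 100% = native peptide agonist; compound fluorescence can raise it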
The depositor's hits bear a star; & = joins results of further samples. An excerpt; the hit share may differ from the screen's.

canonical_smiles,NPYLR7 agonist,NPYLR7 agonist max-min
COc1ccc(S(=O)(=O)Oc2ccc(C=NN=C3NC(=O)C(C)S3)cc2)cc1 (stereo not given),-5,-7
COc1cc(OC)cc(N2C(=O)N(Cc3cccc(Cl)c3)c3ccccc3S2(=O)=O)c1,3,5
O=C(c1cn(-c2ccccc2)nn1)N1CCC(C(O)c2ccccn2)CC1 (stereo not given),-13,-14
Cc1nn(C)cc1CN(C)C(=O)c1cccc(Cl)c1,0,-2
COC(=O)c1ccc(C(=O)NNc2nc3c(C)cccc3s2)cc1,2,0
COc1ccccc1-c1cc2c(=O)n(Cc3nc(-c4ccc(SC)cc4)no3)ccn2n1,-6,-10
CCn1cc(-c2n[nH]c(=O)n2Cc2ccc(OC)cc2)c(C)n1,8,3
COc1ccc(OC)c(-c2ncc(C)cc2Cl)c1,9,10
O=S1(=O)CCC(N2CCN(c3ncnc4cc(-c5ccc(F)cc5)sc34)CC2)C1 (stereo not given),-2,19
CCc1nn2c(=O)cc(CSc3nnc(C4CC4)o3)nc2s1,11,20

The list continues.
canonical_smiles,NPYLR7 agonist,NPYLR7 agonist max-min
COCCCN(CC(=O)N(Cc1ccc2c(c1)OCO2)Cc1cccs1)C(=O)c1ccc(-c2ccccc2)cc1,-1,15
COc1cccc(CC(=O)N2C[C@H](Oc3ccccn3)[C@H]3C[C@@H]2Cc2c3[nH]c3ccccc23)c1,21,23
Cc1cccc(C(=O)N2CCC(C(NC(=O)c3ccccc3C)C(=O)N3CCCCC3)CC2)c1 (stereo not given),-9,-9
CCOc1ccc(C(=O)N2CC[C@@H](c3sccc3C)[C@H](O)C2)o1,7,15
O=C(Cn1cnc2sccc2c1=O)Nc1ccccc1C(=O)NC1CCCC1,-1,3
COc1cccc(-c2noc(-c3ccc(-c4cccc(O)c4)nc3)n2)c1OC,1,-7
CNC(=O)[C@@H]1[C@@H](c2ccccc2)CN2CCN(C(=O)Nc3ccccc3)C[C@H]12,1,13
CC(=O)Nc1nn(C)c2c1C(c1cccs1)CC(=O)N2 (stereo not given),-14,-20
Cc1ccc(CN(CCc2ccccc2)C(=O)CN(Cc2ccco2)C(=O)c2cccc(Br)c2)o1,2,4
C=CCN1C[C@@H]2C[C@@H](C(N)=O)N(C(=O)Cc3cccs3)c3cccc(c32)C1=O,-4,3

Continuation:
canonical_smiles,NPYLR7 agonist,NPYLR7 agonist max-min
c1ccc(CCNCc2nc(-c3ccco3)no2)nc1,-4,-4
CCOC(=O)CN(Cc1ccc(F)cc1)C(=O)C1CCC1,13,9
Cc1cc(C(F)(F)F)n(-c2nc(C(=O)Nc3cnc4n3CCCC4)cs2)n1,5,3
CN1C(=O)NC(c2ccc(F)cc2)C2=C1CN(Cc1cccnc1)C2=O (stereo not given),2,10
CCN(C)C1=C(c2c(C)[nH]n(-c3ccccc3)c2=O)C(=O)N(CCOC)C1=O,1,8
CN(CCCc1cnn(C)c1)C(=O)[C@H](N)c1ccccc1,-12,-12
Cc1noc(C)c1COc1ccccc1N1CCCC(C)C1 (stereo not given),3,4
CCn1nccc1C(=O)NC1=C(C#N)CCC1,24,18
O=C(NNC(=O)c1ccco1)c1ccc(Cl)c(S(=O)(=O)N2CCCCCC2)c1,-2,-3
CCN(CC)c1onc(-c2ccccc2)c1CN(Cc1ccco1)C(=O)Nc1ccc(C)cc1,11,9

Reformatted: three of the compounds above
Compound: CCOC(=O)CN(Cc1ccc(F)cc1)C(=O)C1CCC1
  NPYLR7 agonist: 13
  NPYLR7 agonist max-min: 9

Compound: Cc1cc(C(F)(F)F)n(-c2nc(C(=O)Nc3cnc4n3CCCC4)cs2)n1
  NPYLR7 agonist: 5
  NPYLR7 agonist max-min: 3

Compound: CN1C(=O)NC(c2ccc(F)cc2)C2=C1CN(Cc1cccnc1)C2=O (stereo not given)
  NPYLR7 agonist: 2
  NPYLR7 agonist max-min: 10

The list continues.
canonical_smiles,NPYLR7 agonist,NPYLR7 agonist max-min
CCc1noc(C)c1C(=O)Nc1cc(Cl)ccc1-n1cncn1,4,3
Cc1cc(C)c(NC(=O)C(=O)NCCCCN2CCOC(c3ccccc3)C2)c(C)c1 (stereo not given),-8,-10
O=c1oc2ccccc2cc1-c1nnc(Nc2ccc(Oc3ccc4ccccc4c3Cl)c(Cl)c2)s1,-7,-2
Cc1ccc(C)c(OCC2Cn3c(nc4c(=O)n(C)c(=O)n(C)c43)O2)c1 (stereo not given),-6,-7
O=C(CCSCc1ccc([N+](=O)[O-])cc1)OCC(=O)c1ccccc1,-4,-10
CCCCOc1ccc(C(=O)Nc2ccc(N3CCN(c4ccccc4OC)CC3)c(C(=O)NCCCOCC)c2)cc1,20,24
Cc1ccccc1C(NC(=O)C1CCN(Cc2ccc(Cl)c(Cl)c2)CC1)c1ncccc1C (stereo not given),5,2
O=C(c1cccc(C(F)(F)F)c1)N1CCCC(CO)(CCOc2ccccc2)C1 (stereo not given),1,-4
CC1(C)CC(=O)C=C(C(=O)N2CCCC(CO)(CCOc3ccccc3)C2)O1 (stereo not given),2,-1
COc1ccc(-c2nc3ccccn3c2NC(=O)c2ccc(C)cc2)cc1,-10,-1

New compounds follow
canonical_smiles,NPYLR7 agonist,NPYLR7 agonist max-min
C#CCn1c(=NC(=O)CS(=O)(=O)c2ccc(OC)cc2)sc2c(OC)ccc(OC)c21,2,-1
Cc1cc(C)n(-c2ccc(C(=O)N(CCN(C)C)Cc3ccccc3)cc2)n1,-1,-6
Cc1cc(-c2c(-c3ccccc3)ncn2CC(C)Oc2cccnc2)n[nH]1 (stereo not given),4,4
COc1ccccc1CNC(=O)CSc1nc2c(-c3ccccc3)c[nH]c2c(=O)n1C,-4,-9
COc1ccccc1C(=O)N(CC(=O)N(Cc1ccco1)Cc1cccn1C)C1CC1,7,10
COc1cccc(-c2cc(C(=O)N(C)CCc3ccc(OC)c(OC)c3)n3nc(C(C)(C)C)cc3n2)c1,3,8
CCC(=O)OC1(C)CC2CC(CN(C(=O)C3CCCCC3)C2)C1 (stereo not given),0,-6
Cc1c(Cl)c(C(F)(F)F)nn1CC(=O)Nc1ccc(Br)cc1,8,9
CCc1cc(N2CCC(c3nn(C)c(=O)n3-c3ccccc3)CC2)ncn1,10,9
Cc1nc(-c2cccc(NC(=O)c3c(C)nn(CC(C)C)c3Cl)c2)cs1,6,5

Next part
canonical_smiles,NPYLR7 agonist,NPYLR7 agonist max-min
CC(C)N(Cc1nccn1C)C(=O)c1cc(COc2ccc3c(c2)CCCC3)on1,-2,-6
CCCCN(C=O)c1c(CC)nc2ccc(C(=O)N3CCCC(C(N)=O)C3)cn12 (stereo not given),7,-7
O=C1CC2CS(=O)(=O)CC2N1c1ccc(Cl)c(S(=O)(=O)Nc2ccccc2Cl)c1 (stereo not given),-1,-3
CCc1ccc(C2=Nc3nnnn3C(c3ccc(SC)cc3)C2)cc1 (stereo not given),5,4
O=C(Cc1[nH]nc2ccccc12)N1CCCC(Nc2ccc3c(c2)OCCO3)C1 (stereo not given),1,-3
Cc1cnc(-c2n[nH]c(C3CC3)n2)cn1,9,4
CC(=O)N1N=C(c2ccncc2)OC1C(=O)NNc1ccccc1C(F)(F)F (stereo not given),12,5
CCSC[C@H](N)C(=O)N1CCc2c(nc(N(C)C)[nH]c2=O)C1,-1,-8
C#CCN(C(=O)c1cc(Cl)c(Cl)[nH]1)c1nccs1,8,6
Cc1nn(CC(=O)NC2CCCCCC2)c(C)c1S(=O)(=O)NC(C)(C)C,9,8

Next section
canonical_smiles,NPYLR7 agonist,NPYLR7 agonist max-min
Cc1[nH]c2ccc(C(=O)NC(C)C3CCCO3)cc2c1C (stereo not given),0,-2
O=C(CC1C(=O)NCCN1Cc1cccc(F)c1)NC1CCOCC1 (stereo not given),4,1
CCCCc1ccc(C(=O)NCCN2CCN(c3nc(Cc4ccccc4)ns3)CC2)cc1,-2,11
O=C(NCCS(=O)(=O)N1CCc2ccccc21)Nc1ccc(N2CCOCC2)nc1,3,4
Cc1ccc(CN2CCCN(C(=O)c3n[nH]c(=O)c4ccccc34)CC2)cc1,-6,-8
Cc1sc2nc(C(C)C)nc(N3CCN(S(=O)(=O)c4ccc(F)cc4)CC3)c2c1C,-9,3
COc1cccc(-c2cc(C(=O)NCCN3CCCCC3)n(-c3cccc([N+](=O)[O-])c3)n2)c1,12,25
C=CCNC1(C)CCS(=O)(=O)C1 (stereo not given),3,4
Cc1cc(C)c2c(c1)NC(=O)C2CC(=O)N1CCc2nc[nH]c2C1 (stereo not given),29,17
N#CC1(C(=O)NC/C=C/c2ccccc2)CCCCC1,13,13

(cont.)
canonical_smiles,NPYLR7 agonist,NPYLR7 agonist max-min
Cc1noc(C)c1CNC(=O)NCC(CO)Cc1ccccc1 (stereo not given),-7,-9
CCCNC(=O)Cn1nc2c(c1NC(=O)/C=C\c1ccccc1)CSC2,1,11
Cc1cccn2c(=O)c3cc(C(=O)N4CC(C)OC(C)C4)n(C)c3nc12 (stereo not given),7,13
CC(=O)c1cccc(S(=O)(=O)N2CCN(C(=O)Cc3c(C)noc3C)CC2)c1,2,-5
COc1ccc(-c2[nH]ncc2C2Nc3ccccc3C(=O)N2CC2COC(C)(C)O2)cc1 (stereo not given),0,-2
CC(C)(NCc1cc(C#N)ccc1F)c1ccc2c(c1)OCCO2,-27&-2,-26&3
COc1ccccc1CCNC(=O)C(C)(C)Oc1ccc(Cl)cc1,-6,-7
Cc1cccc2c1ncn1c(=O)n(CC(=O)Nc3ccc(Cl)cc3F)nc21,8,3
COC(=O)C1(NC(=O)c2cccc(S(=O)(=O)N3CCCCC3)c2)CCCCC1,5,0
Cc1cccc(CN(CCN2CCOCC2)CC(O)COc2ccc(Cl)cc2)c1 (stereo not given),33,34

(listing goes on)
canonical_smiles,NPYLR7 agonist,NPYLR7 agonist max-min
CCN(CC)CCNC(=O)c1cc(Br)c(N)cc1OC,-14&-2,-17&-7
CNc1oc(-c2ccccc2)nc1S(=O)(=O)c1ccc(C)cc1,-1,-1
CNC(=O)[C@H]1C[C@]2(CCCCN(C)C2=O)N(C(=O)Nc2ccccc2)[C@H]1c1ccccc1,-1,2
Cc1nc(C(=O)NCCc2ccc(F)cc2)cs1,-6,-15
COC(=O)c1ccccc1N(C)C(=O)CN1CCCC1c1cccc(F)c1 (stereo not given),1,3
CCCCc1ccc(C(=O)Nc2ccc(C3SCC(=O)N3c3ccccc3OCC)cc2)cc1 (stereo not given),4,10
CC(C)(C)SC(C(=O)N1CCOCC1)c1ccc(Br)cc1 (stereo not given),2,-1
COc1ccc(CNC(=O)c2sc(C(C)C)nc2C)cn1,6,3
COc1cc(C2C(S(=O)(=O)NC3CCCCC3)CON2C)cc(OC)c1OC (stereo not given),3,1
CC(C)(C)c1ccc(S(=O)(=O)N2CCN(C(=O)CN3CCc4sccc4C3c3cccc(F)c3)CC2)cc1 (stereo not given),10,2

(cont.)
canonical_smiles,NPYLR7 agonist,NPYLR7 agonist max-min
COc1cc(C(=O)NCCN2C(=O)C(=Cc3ccc4c(c3)OCO4)SC2=S)ccc1C,9,10
O=C(Nc1ccccc1)c1cccc(CN2C[C@H](O)[C@@H](N3CCCC3)C2)c1,7,4
O=C(Nc1cnc2n1CCCC2)C(=O)N1CCc2ccccc2C1,20,4
Cc1cc(N2CCNC(C(=O)O)C2)nc(-c2ccccc2)n1 (stereo not given),0,-3
COc1ccc2sc(C(=O)NCc3ccco3)c(Cl)c2c1,25,18
O=C(Nc1cc(OCC(F)(F)F)cc(OCC(F)(F)C(F)F)c1)C1CCCO1 (stereo not given),-11,-17
Cc1csc(NC(=O)CSc2nc(-c3ccco3)nc3c2c(=O)n(C)c(=O)n3C)n1,9,8
Cc1ccn2c(=O)nc(SCC(=O)c3ccccc3)nc2c1,2,1
COCCNc1oc2c(c1-c1cccc(OC)c1)c(=O)oc1c(C)cccc12,-10,-11
O=C(O)CN1CCOC(CCc2ccccc2)C1 (stereo not given),8,7

Among those listed so far, these have a nitro group on carbon.
canonical_smiles,NPYLR7 agonist,NPYLR7 agonist max-min
O=C(CCSCc1ccc([N+](=O)[O-])cc1)OCC(=O)c1ccccc1,-4,-10
COc1cccc(-c2cc(C(=O)NCCN3CCCCC3)n(-c3cccc([N+](=O)[O-])c3)n2)c1,12,25

(further entries)
canonical_smiles,NPYLR7 agonist,NPYLR7 agonist max-min
O=c1c2c3c(sc2ncn1CCCc1nc2ccccc2s1)CNCC3,-6,-9
COc1ccc(NC(=O)c2cccc(Nc3ccnc(Nc4cccc(C)c4)n3)c2)cn1,14,11
CC(NC(=O)c1ccc(-c2ccc(F)cc2)s1)c1ccc(Br)cc1 (stereo not given),1,4
O=C1CCNc2ccccc2CN1C/C=C/c1ccccc1,-1,9
O=C(c1ccc(Cl)c([N+](=O)[O-])c1)N1CCC2(CC1)SCCN2C(=O)c1ccccc1F,6,13
COc1cc(-c2ccnc(N3CCN(S(=O)(=O)c4ccc(F)cc4F)CC3)n2)cc(OC)c1OC,12,10
COc1cc(CN2C(=O)C(C)ON=C2c2ccc(N(C)C)cc2)cc(OC)c1 (stereo not given),15,5
COc1cc(NC(=O)c2cc(-c3ccccc3)nc3onc(C)c23)cc(OC)c1OC,7,7
CCCNc1ncc(CN2CCCC2c2nc(-c3ccccc3)no2)cn1 (stereo not given),5,4
Cc1cc(S(=O)(=O)N(C)C)cc(NC(=O)c2c(F)cccc2F)c1C,10,5

2 successive compounds from above, quoted:
canonical_smiles,NPYLR7 agonist,NPYLR7 agonist max-min
CCCNc1ncc(CN2CCCC2c2nc(-c3ccccc3)no2)cn1 (stereo not given),5,4
Cc1cc(S(=O)(=O)N(C)C)cc(NC(=O)c2c(F)cccc2F)c1C,10,5

(next part)
canonical_smiles,NPYLR7 agonist,NPYLR7 agonist max-min
COc1cccc(C(=O)Nc2ccc(N3CCC(Cc4ccccc4)CC3)c(C(=O)N3CCCC3)c2)c1,9,18
COc1ccc(S(=O)(=O)NCCCN2CCOCC2)cc1N1CCN(C(=O)c2cc(C)on2)CC1,19,6
Fc1ccc(-c2[nH]ncc2CN2CCCC(Nc3ccccc3)C2)cc1 (stereo not given),-3,-2
COCc1cc(N2CCN(c3ccc(OC)cc3)CC2)nc(SCc2ccc(C(=O)N3CCCC3)cc2)n1,12,11
